Screening results deposited in PubChem BioAssay by National Center for Advancing Translational Sciences (NCATS).
Vaccinia Venus – vaccinia inhibition (Venus reporter). Vaccinia virus Venus reporter expression, fluorescence. Potency, µM (doses to about 36.5 µM), for inactives: at the highest dose activity change, negative = inhibition, most hits filed as inhibitors. actives 0.46% (n = 330,000); active means well fitted inhibition curve with a large enough effect; inconclusive means small, poorly fitted or top-dose-only effect; inactive means no such curve, though single readings can be large or run the other way; tested in A549 cells; also: nearly all actives have a fitted effect of over 30% in size; inactives centre near -10
VACV mCherry inh – vaccinia inhibition (mCherry reporter); Vaccinia virus mCherry reporter infection, fluorescence; about a quarter of the inactives have no number; Potency, µM (series often up to 36.5 µM), for inactives: at the highest dose activity change, negative = inhibition, most hits filed as inhibitors; actives 0.63% (n = 310,000); active = well fitted inhibition curve with a large enough effect; inconclusive = small, poorly fitted or top-dose-only effect; inactive = no such curve, though single readings can be large or run the other way; tested in A549 cells; also: nearly all actives have a fitted effect of over 35% in size; inactives centre near -10
* hit, by the source's call; i = inactive; ? = inconclusive; . = no result given; & = joins results of further samples; [ ] = another dose, or the depositor's remark. % is scaled to controls: 0 for no effect and ±100 for the full control effect; potency is read from the fitted curve at half-maximal effect.

Values run as follows: VACV mCherry inh	Vaccinia Venus
> CCOc1ccc(C(=O)Nc2ccc(-c3nnc4n3CCCCC4)cc2)cc1OCC
    -19%	-7%
> COc1cccc2cc(C(=O)C3=C(O)C(=O)N(CCN4CCOCC4)C3c3ccc(C)o3)oc12 (configuration not stated)
    i	-10%
> COc1ccnc(Oc2ccc(F)cc2)c1-c1ncn[nH]1
    -7%	-3%
> CCCCOC(=O)c1ccc(NC(=O)c2ccc3c(c2)CCN3S(C)(=O)=O)cc1
    -10%	-7%
> O=C(NC1CCCC1)C1CCC(CNS(=O)(=O)c2cccs2)CC1 (configuration not stated)
    -13%	-8%
> CCn1c(CNc2ccc(Cl)cc2)nnc1SCC(=O)OC1CCCCC1
    -20%	-9%
> O=C(CSc1nc(=O)[nH]c2c1CCCC2)NCc1ccc(Cl)cc1
    -5%[7.34 µM]	-8%[7.34 µM]
> CCOC(=O)c1ccc(NC(=O)CCOc2ccccc2)cc1
    .	11%
> Cc1cc(=O)[nH]c2nnc(SCC(=O)Nc3cc(C(F)(F)F)ccc3Cl)n12
    i	-2%
> Brc1ccc(CSc2nnc(-c3ccccn3)n2Cc2ccco2)cc1
    -19%	-29%
> Cc1cccc(C(=O)NC(=S)NNC(=O)c2ccccc2Cl)c1
    -16%	-1%
> COc1ccccc1N1CC(C(=O)Nc2nnc(SCc3cccnc3)s2)CC1=O (configuration not stated)
    -19%	-10%
> Cc1cc(NC(=O)CCC2CCCCC2)no1
    -10%	-18%
> CCc1nnc(NS(=O)(=O)c2ccc(NC(=S)NC(=O)c3ccc(Br)cc3)cc2)s1
    -1%	-22%
> O=C(c1ccc(S(=O)(=O)Nc2ccccc2F)cc1)N1CCN(c2ccccc2O)CC1
    i	-20%
> COC(=O)C1=C(c2ccccc2)c2ccccc2S(=O)(=O)N1CC(=O)Nc1ccc(OC)cc1OC
    -14%	-11%
> Cc1cccc(NC(=O)Cc2coc3ccc4ccccc4c23)n1
    i	3%
> CC(=O)C1=C(C)NC(=O)NC1c1ccccc1 (configuration not stated)
    -13%	-6%
> CC(=O)Nc1nonc1NC(=O)COc1ccccc1
    i	3%
> Cc1cc(=O)n2nc(N3CCCC(C(=O)NCCC4=CCCCC4)C3)sc2n1 (configuration not stated)
    .	-13%
> CC(OC(=O)C1CCC1)C(=O)Nc1cc(Cl)cc(Cl)c1 (configuration not stated)
    -10%	-6%
> CCCNC(=O)CSc1nc2ccccc2nc1Cc1ccc(Cl)cc1
    -16%	-9%
> Cn1ncc(C#N)c1/N=C/N(Cc1ccccc1)Cc1ccccc1
    i	-17%
> O=C(Nc1ccc(Cl)c([N+](=O)[O-])c1)c1ccncc1
    -11%	-4%
> N#CCCn1cc(/C=C(\C#N)c2nc3ccccc3s2)c(-c2ccc(F)cc2)n1
    -22%	-12%
> CC(C)(C)c1ccc(OCCCC(=O)NNC(=O)c2ccccc2O)cc1
    14µM*	?
> Cc1c(C(=O)O)oc2c1ccc1ccccc12
    i	-7%
> COc1ccc(CCC(=O)N2CCCC(Nc3ccc(C)c(C)c3)C2)cc1OC (configuration not stated)
    ?	-5%[7.34 µM]
> O=S1(=O)CCOC[C@H](CC2CCCCC2)N1Cc1ccc(Cl)cc1
    -4%&-14%	-18%&-9%
> COC[C@H]1CCCN1[C@@H]1CS(=O)(=O)N[C@H]1COCc1ccccc1
    10%	-3%
> O=C(Nc1ccc(F)cc1)N(Cc1cccs1)Cc1cc2cc3c(cc2[nH]c1=O)OCO3
    ?	?
> CCOC(=O)c1ccc(NC(=O)COC(=O)c2cn(CC)c3nc(C)ccc3c2=O)cc1
    -10%	-12%
> CN1CCN(Cc2cc(=O)n3ccsc3n2)CC1
    i	-3%
> CCOC(=O)c1ccc(-n2c(=O)[nH]c3ccccc3c2=O)cc1
    -11%	-13%
> Cc1cc(C)c(C#N)c(Oc2ccc(F)cc2)n1
    .	-24%
> Cc1cc(OCC(=O)NC2CCN(Cc3ccccc3)CC2)c2c(C)cc(=O)oc2c1
    -4%	-4%
> COc1cc(/C=N/NC(=O)c2cccnc2)ccc1OC(=O)c1ccc([N+](=O)[O-])cc1
    -27%	0%
> COC(=O)C(CCSC)NC(=O)c1c(C)oc2ncn(CC(C)C)c(=O)c12 (configuration not stated)
    -12%	-3%
> C[c-]1[c-](C)[c-](C)[c-](C)[c-]1C.[Fe].c1cc2nccc(N3CCCC3)[c-]2c1 (configuration not stated)
    ?	-23%&-21%
> CC1=NN(c2cccc(Cl)c2)C(=O)C1
    ?	16%
> Cc1ccc(-n2nc(-c3ccccc3)cc2Nc2ccccc2N)cc1
    -22%	-13%
> CCn1cc(CN2CCC(n3nccc3NC(=O)CCc3ccccc3)CC2)cn1
    -15%	-19%
> N#C/C(C(=O)c1ccccc1)=C1/CCCCCN1
    -13%	-14%
> COc1ccc(N(CC(=O)NCCSc2ccccc2)S(C)(=O)=O)cc1
    -19%	-4%
> O=C(CCC(=O)N/N=C/c1ccc(Br)o1)N/N=C/c1ccc(Br)o1
    -17%	-4%
> Cn1cc(CCC(=O)NCCCc2ccccc2)c2ccccc21
    i	-14%
> COc1ccccc1N1CCN(C(=O)Nc2ccc(F)c(Cl)c2)CC1
    i	0%
> Cc1cnc(C(=O)OC(C(=O)c2c[nH]c3ccccc23)c2ccccc2)cn1 (configuration not stated)
    -9%	-12%
> CCOC(=O)c1ccc(NC=C2C(=O)OC3(CCCCC3)OC2=O)cc1
    -7%	-12%
> C[N+]1(C2CCC3CCCC2C3O)CCCCC1 (configuration not stated)
    i	-12%
> CC(C)NC(=O)C(C)Oc1ccc(S(=O)(=O)NCc2ccc3c(c2)OCO3)cc1 (configuration not stated)
    i	-3%
> CCOC(=O)Cc1nnn(CC(=O)OCC)n1
    .	-18%
> CCOc1ccc(/C=C2\SC(=S)N(N3C(=O)C4CC4C3=O)C2=O)cc1 (configuration not stated)
    ?	-8%
> Cc1ccc(CN2CCC(C)(Oc3ccc(Cl)cc3)C2)cc1 (configuration not stated)
    i	-5%
> COc1ccc(OC)c(NC(=O)c2c(NCc3sccc3C)sc3c2CCCCC3)c1
    -13%	13%
> Cc1nc2scc(C)n2c(=O)c1S(=O)(=O)NC(C)c1ccccc1 (configuration not stated)
    -6%[7.34 µM]	0%[7.34 µM]
> CCOc1ccccc1/C=N/NC(=O)CNC(=O)c1ccc(S(=O)(=O)N2CCOCC2)cc1
    -13%	0%
> C/C=C/C=C/C(=O)O
    i	-2%
> C=CCNc1nc(N)c([N+](=O)[O-])c(NCc2ccccc2)n1
    -16%	-19%
> COc1cc(/C=C2\SC(=N)N(c3ccc(F)cc3)C2=O)ccc1O
    -14%	9%

New compounds follow:
Values run as follows: VACV mCherry inh	Vaccinia Venus
> CCCCOCCCNC(=O)C1CCCCC1
    -13%	-5%
> O=C(O)c1ccccc1NS(=O)(=O)c1cccc(-n2sc3ccccc3c2=O)c1
    -1%	-8%
> CCOc1cccc2sc(N(CCCN(C)C)C(=O)Cc3ccccc3)nc12
    -12%	-10%
> CCCCC[C@@H]1CCCCC[C@@H](O)C[C@@H](O)[C@H](O)/C=C/C(=O)O1
    i	-11%
> CC(=O)C[C@@H](O)CC(=O)[C@@H]1OC(=O)CCCCCCCCc2ccccc21
    i	-9%
> O=C(CCC(=O)N1C[C@H]2C[C@@H](C1)c1cccc(=O)n1C2)NCc1ccccc1C(F)(F)F
    -2%	-14%
> Cn1c2c(c(=O)n(C)c1=O)C(C(F)(F)F)(C(F)(F)F)N=C(c1ccc(Cl)cc1)N2
    ?	?
> CC(=O)/C=C\c1cn(-c2ncc(C(F)(F)F)cc2Cl)c2ccccc12
    .	-29%
> COc1ccc(NC(=O)CCc2nnc3n(Cc4ccccc4Cl)c(=O)c4ccccc4n23)cc1
    -15%	-14%
> CCOc1ccc2cc(C(=O)NCc3ccccc3)c(=N)oc2c1
    -13%	-15%
> Cc1cc(F)ccc1S(=O)(=O)N1CCCOC1CNC(=O)C(=O)NCCN1CCOCC1 (configuration not stated)
    -5%	-8%
> Cc1ccc(-c2cc(-c3ccccc3)no2)c(O)c1
    -13%	0%
> O=C(C[C@@H]1C=C[C@H](NC(=O)Cc2ccccn2)[C@@H](CO)O1)NCCc1ccccc1
    -4%	4%
> COC(=O)C1=C(N)OC2=C(C(=O)CC(C)(C)C2)C1c1cc2c(cc1Cl)OCO2 (configuration not stated)
    -28%	-9%
> COc1ccccc1CNC(=O)C1CCN(S(=O)(=O)c2ccc3c(c2)C(C)(C)C(=O)N3C)CC1
    -16%	-12%
> COCc1c(C(=O)N2CCN(C3CCCC3)CC2)cnn1-c1ncc2c(n1)-c1ccccc1CCC2
    -22%	-1%
> Cc1cc2c([nH]c3ccccc32)c2c1OC(C)(C)C=C2
    -26%	-26%
> Cc1ccc(NC(=O)c2ccc(-c3ccccc3)s2)cc1
    -3%	11%
> CCOC(=O)c1ccc(CC2SC(N)=NC2=O)cc1 (configuration not stated)
    -18%	-8%
> COc1cccc(C2CC(=O)Nc3c2c(=O)n(C)c2nc4ccccc4n32)c1OC (configuration not stated)
    9%	5%

4 of the compounds above, field by field.
CCOc1ccc2cc(C(=O)NCc3ccccc3)c(=N)oc2c1
  VACV mCherry inh: -13%; Vaccinia Venus: -15%

Cc1cc(F)ccc1S(=O)(=O)N1CCCOC1CNC(=O)C(=O)NCCN1CCOCC1 (configuration not stated)
  VACV mCherry inh: -5%; Vaccinia Venus: -8%

Cc1ccc(-c2cc(-c3ccccc3)no2)c(O)c1
  VACV mCherry inh: -13%; Vaccinia Venus: 0%

O=C(C[C@@H]1C=C[C@H](NC(=O)Cc2ccccn2)[C@@H](CO)O1)NCCc1ccccc1
  VACV mCherry inh: -4%; Vaccinia Venus: 4%

Remaining list, next part:
Values run as follows: VACV mCherry inh	Vaccinia Venus
> O=C(O)Cc1sc(Nc2cccc3ccccc23)nc1-c1ccc(Cl)cc1
    -17%	-6%
> CN(C)C(=O)Oc1ccc(-c2nnco2)cc1
    -3%	2%
> Cc1ccccc1Cn1c(CN2CCC(C(=O)NCc3ccc(Cl)cc3)CC2)cc2ccccc21
    -16%	-2%
> CCOC(=O)c1ccc(NC(=O)CCCn2nc(C)c3sc4ccccc4c3c2=O)cc1
    -8%	-2%
> COCCN(C(=O)CSc1nc2ccc(C)cc2[nH]1)c1c(N)n(Cc2ccccc2)c(=O)[nH]c1=O
    i	-4%
> CC(C)C(=O)NC(=S)Nc1c(Cl)ccc2nsnc12
    -18%[7.34 µM]	-3%[7.34 µM]
> O=C(NCCN1CCOCC1)c1ccc(Cl)c([N+](=O)[O-])c1
    -20%	-2%
> CN(C(=O)C1CCOC1)c1nnc(-c2ccncc2)s1 (configuration not stated)
    -8%	2%
> NC(=O)c1cc[n+](CC2=C(C(=O)O)N3C(=O)[C@@H](NC(=O)[C@@H](c4ccccc4)S(=O)(=O)[O-])[C@H]3SC2)cc1
    -12%[60.7 µM]	-4%[60.7 µM]
> N#Cc1cn(CC(=O)NCC2CCCO2)c2ccccc12 (configuration not stated)
    -9%	-2%
> OCCC1CN(Cc2nc3ccccc3[nH]2)CCN1C1CCCC1 (configuration not stated)
    -2%	-8%
> COc1ccc(OC)c(NC(=O)Cn2cnc3onc(-c4ccc(Cl)cc4)c3c2=O)c1
    -23%	-20%
> Cc1ccc(Nc2ncnc3c2cnn3C)c(C)c1
    -1%	-8%
> Cc1ccc(C(=O)CCNc2ccccc2)o1
    -1%	-16%
> Clc1ccc2nc(CSCc3ccccc3)cn2c1
    -9%	-17%
> Cc1ccc(S(=O)(=O)N2CCOCC2)cc1NC(=O)CNc1ccccc1N1CCCC1=O
    -9%	-5%
> Cn1cnc(S(=O)(=O)N2CCC(C(=O)Nc3ccc(Cl)c(C(F)(F)F)c3)CC2)c1
    -7%	-21%
> Cc1cc(C)n(-c2nc3ccccc3nc2Nc2ccc(Cl)c(Cl)c2)n1
    -10%	0%
> O=C(NN1CCOCC1)c1cc(Cl)ccc1Cl
    i	-9%
> O=C(CSc1nnc(NC(=O)c2ccccc2F)s1)NCC1CCCO1 (configuration not stated)
    -11%	-6%
> COc1ccc(CN2CCC(C(=O)Nc3ccc(Oc4cccnc4)cc3)CC2)cc1
    ?	-19%
> O=C(CSC1=NC(=O)C(c2ccccc2)C(=O)N1)Nc1ccccc1[N+](=O)[O-] (configuration not stated)
    -3%	2%
> O=C(NCc1ccco1)/C(=C/c1ccco1)NC(=O)c1ccco1
    -1%	-1%
> COc1ccc(/C=N/NC(=O)CCn2c3ccccc3c3ccccc32)cc1OC
    -19%	-5%
> COc1ccc(N2CCN(C(=O)c3cn(CC4CCCCC4)nn3)CC2)cc1
    -10%	-25%
> C/C(=N\NC(=O)c1ccc(Cl)cc1)c1ccc(Br)s1
    -20%	-16%
> Cc1ccc(CNC(=O)CCCc2nc3ccccc3s2)cc1
    i	-9%
> COc1ccc(-c2csc(C(NC(C)=O)c3cccc(F)c3)n2)cn1 (configuration not stated)
    i	-1%
> CC(C)Cc1ccc(C(C)C(N)=Nc2ccc(O)cc2)cc1 (configuration not stated)
    ?	-3%
> CCOC(=O)c1c(NC(=O)CCC(=O)NCc2ccco2)sc2c1CCCC2
    ?	-23%
> O=S(=O)(/N=C(/Nc1ccc(F)cc1F)c1ccc(Cl)cc1)c1ccccc1
    -9%[1.46 µM]	-11%
> CC(C)c1ccc(/C=N/NC(=O)c2cc(-c3cccc([N+](=O)[O-])c3)n[nH]2)cc1
    -18%	?
> COc1ccc(S(=O)(=O)N(CC(=O)NCc2ccco2)C2CCCCC2)cc1OC
    0%	-8%
